Screening results: PubChem BioAssay, several laboratories
FGF22 binding: binders of recombinant human FGF22 by thermal shift. Q9HCT0. SYPRO orange fluorescence; percent of sucrose octasulfate shift, DMSO zero. calls only at 9.99 µM. 340,000 tested, 1.5% active. AID 651658;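 active means melting point raised past a set limit in the mean and every replicate; inconclusive means no clear call; three in four hits are not shown here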
UCH37 inh: inhibitors of human deubiquitinating enzyme UCH37 | purified proteasome/UCH37, Ub-AMC cleavage fluorescence | inhibition, % (no concentration beside the values) | 330,000 tested, 0.33% active | AID 588478;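 active means mean of two replicates above 20%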;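 further: 0% = compound-free wells with enzyme and 100% = wells lacking proteasome; stock transfer was 100 nL into about 20 µL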
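Material: human UCH37 enzyme supplied as purified proteasome complex / Amount: 0.15 nM proteasome as dispensed / Buffer or medium: pH 7.4 Tris-HCl (50 mM) with ovalbumin, ATP-MgCl2, DTT / Times: preincubation 30 min, reaction 25 min, room temperature / Technique: AMC fluorescence from Ub-AMC cleavage, excitation 355 nm, emission 460 nm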
HNF4A DNA FP: change in binding of human HNF4 alpha to DNA. P41235. HNF4a-FITC DNA binding, fluorescence polarization, 1 h. activity change, % at 10 µM. 360,000 tested, 0.3% active; in the data active means activity change above about 30%, passing the limit was not always enough;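 further: controls were the assay level and a saturating level of protein; the project sought stronger binding though the title names inhibitors; some compounds called inactive have numbers as strong as hits; positive values seem to mean higher polarization but the record does not say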
Target sequence (P41235 whole entry, looked up): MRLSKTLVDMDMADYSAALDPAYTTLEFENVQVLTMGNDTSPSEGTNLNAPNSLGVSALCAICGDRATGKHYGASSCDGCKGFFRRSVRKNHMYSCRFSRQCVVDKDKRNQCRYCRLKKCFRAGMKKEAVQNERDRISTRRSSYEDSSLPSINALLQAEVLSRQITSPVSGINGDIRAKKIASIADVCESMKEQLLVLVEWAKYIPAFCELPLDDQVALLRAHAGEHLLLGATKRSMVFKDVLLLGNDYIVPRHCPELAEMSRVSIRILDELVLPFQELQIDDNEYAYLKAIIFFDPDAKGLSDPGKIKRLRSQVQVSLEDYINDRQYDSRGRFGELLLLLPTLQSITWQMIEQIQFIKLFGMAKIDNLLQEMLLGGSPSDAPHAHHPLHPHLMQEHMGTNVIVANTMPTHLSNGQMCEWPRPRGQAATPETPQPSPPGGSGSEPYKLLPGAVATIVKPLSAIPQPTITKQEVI
E coli growth: blocks Escherichia coli growth | 330,000 tested, 0.21% active | OD600, 23 h; active compounds read low | OD600 absorbance (test concentration not listed);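 active means OD600 absorbance below the run mean of sample wells minus 3.6 SD, in any replicate, cut at about 0.56 in these data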;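 further: stock transfer was 300 nL into about 60 µL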
MLL AF4-AF9 inh: inhibitors of human MLL-AF4/AF9 interaction; inhibition, % at 10 µM; 350,000 tested, 0.47% active; P42568; AlphaScreen, biotin-AF4 peptide binding to FLAG-AF9;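 active means every replicate reaching a set inhibition limit, whatever the replicate mean, cut at about 25% in these data; inconclusive means mean inhibition reaches that limit but some replicates miss it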;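 further: 0% = plate neutral control median and 100% = total signal loss; the record names both 10 and 1 µM as test concentration; the first replicate is given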
Target sequence (P42568 whole entry, looked up): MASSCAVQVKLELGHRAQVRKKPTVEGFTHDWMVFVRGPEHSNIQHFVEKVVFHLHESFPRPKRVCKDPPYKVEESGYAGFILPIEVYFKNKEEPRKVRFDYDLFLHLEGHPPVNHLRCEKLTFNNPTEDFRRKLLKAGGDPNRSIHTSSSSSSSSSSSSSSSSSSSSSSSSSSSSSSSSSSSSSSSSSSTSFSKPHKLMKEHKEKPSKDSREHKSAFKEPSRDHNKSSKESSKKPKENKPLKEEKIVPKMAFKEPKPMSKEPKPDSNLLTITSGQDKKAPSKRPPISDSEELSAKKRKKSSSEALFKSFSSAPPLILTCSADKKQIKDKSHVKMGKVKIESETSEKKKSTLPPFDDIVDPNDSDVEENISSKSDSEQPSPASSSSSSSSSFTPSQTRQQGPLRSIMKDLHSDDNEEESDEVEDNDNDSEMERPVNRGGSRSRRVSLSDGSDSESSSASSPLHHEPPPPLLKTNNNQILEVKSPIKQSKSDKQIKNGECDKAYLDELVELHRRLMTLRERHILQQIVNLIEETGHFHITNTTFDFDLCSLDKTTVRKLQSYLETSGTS
Vif TR-FRET: HIV-1 Vif–A3G interaction blockers – biochemical, TR-FRET, GST-Vif 1-94, biotin-A3G peptide, dose response retest, primary screen (AID 1117319). inhibition, %, or IC50 in µM where a hit was titrated. 260,000 tested, 0.57% active. TR-FRET GST-Vif / biotin-A3G peptide binding; higher % means a stronger effect; test concentration not given here; strong numbers were not always called active;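 active means above the screen mean plus three standard deviations and confirmed in dose response; inconclusive means results disagree or hit not tested in dose response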;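 further: Vif residues 1-94 fused to GST binding biotinylated APOBEC3G peptide 110-148; 0% = full assay without inhibitor and 100% = GST in place of GST-Vif; retest series ran down from 100 µM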
RanGTP-Impb inh: inhibitors of RanGTP-importin-beta interaction, primary screen, biochemical, FRET, CFP-Ran, YFP-importin-beta, homogeneous | cell-free CFP-Ran/YFP-importin-beta FRET ratio | inhibition, % (no concentration beside the values) | 300,000 tested, 1.1% active | AID 2216;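 active means most replicates above 15%; inconclusive means exactly half above 15%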;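 further: 0% = DMSO wells and 100% = Ran loaded with GDP instead of GTP; wells of about 40 µL received 100 nL stock; the first replicate is given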
Active calls of the source: *; i = inactive; ? = inconclusive; . = no result given; + = active, no number; & = joins results of further samples.

SMILES	FGF22 binding	UCH37 inh	HNF4A DNA FP	E coli growth	MLL AF4-AF9 inh	Vif TR-FRET	RanGTP-Impb inh
CN(C)c1ccc(CNC(=O)C2Cc3c(-c4cccc(C(N)=O)c4)ccnc3O2)cc1 (stereo unspecified)	i	.	-2.0	.	17	.	.
O=[N+]([O-])c1ccc(SCc2ccco2)cc1N1CCOCC1	i	5.0	1.7	0.68	19	-9%	2.4
Cc1nc(CSc2ccc(Cl)cc2)cc(N2CCOCC2)n1	.	3.0	-3.7	0.72	.	-1%	0.8
CCC(C)Nc1nc(Cl)nc(N(C#N)CN2C(=O)c3ccccc3S2(=O)=O)n1 (stereo unspecified)	i	.	-1.6	.	4.4	20%	5.8
Cc1cccc(NC(=O)c2cc3c(s2)-c2c(C)cccc2OC3)n1	i	-291	-2.1	0.72	-0.2	-15%	30*
O=C(Nc1cccc2c1CCCC2)C1CCN(C(=O)NC2CCCCC2)CC1	.	2.2	2.4	0.68	.	3%	-2.9
COCCN(CCOC)S(=O)(=O)c1ccc(C(=O)Nc2nc3c(s2)CCc2ccccc2-3)cc1	i	-167	-4.8	0.71	-2.7	5%	3.7
COc1ccc(C(=O)c2c[nH]c(C(=O)NCCCN3CCOCC3)c2)cc1	i	2.7	-2.1	0.68	3.8	-1%	0.3
O=C(CN(Cc1ccccc1F)C(=O)Cn1nnc(-c2cccs2)n1)NC1CCCCC1	.	4.3	0.7	0.75	.	2%	0.9
COC(=O)c1ccccc1OCCOCCOc1cccc2cccnc12	i	1.4	2.2	0.68	-3.3	-1%	0.8
COC(=O)CCC(NS(=O)(=O)OCC(Cl)(Cl)Cl)c1ccccc1 (stereo unspecified)	i	2.9	4.6	0.68	-7.0	.	?
O=C(Nc1ccccc1Cl)c1cc(C2CCCN(C(=O)OCCF)C2)on1 (stereo unspecified)	i	.	-3.1	.	1.0	.	.
CCCc1[nH]nc2c1C(c1ccc(O)c(OC)c1)C(C#N)=C(N)O2 (stereo unspecified)	.	2.7	0.3	0.72	.	-5%	-1.1
Cc1ccc(S(=O)(=O)c2c(C)nn(-c3ccccc3)c2OC(=O)c2ccc(Br)o2)cc1	.	5.7	-0.9	0.7	.	0%	.
COc1ccccc1NC(=S)NCc1ccco1	.	1.2	7.9	0.78	.	14%	2.1
CCn1c2ccccc2c2nnc(SCC(=O)Nc3c(C)n(C)n(-c4ccccc4)c3=O)nc21	.	8.0	-0.4	0.67	.	9%	1.3
CCOC(=O)C1CCN(C(=O)C2CCN(C(=O)c3ccc([N+](=O)[O-])cc3)CC2)CC1	.	3.5	0.8	0.7	.	-7%	-2.7
Cn1cnc(S(=O)(=O)N2CCN(c3ccc(F)cc3)CC2)c1	i	1.8	0.8	0.67	-0.8	-3%	0.3
Cn1c(-c2ccc(Cl)nc2)nc2cc(Cl)ccc21	i	-4.2	-1.4	0.65	-1.4	-5%	8.8
O=C(COc1ccc2c(c1)oc(=O)c1ccccc12)NC(Cc1ccc(Cl)cc1)C(=O)O (stereo unspecified)	+	-196	-0.3	0.72	-3.4	.	5.6
CCN(CC)CC(=O)Nc1sc2c(c1C(=O)c1ccccc1C)CCC2	i	7.5	-0.8	0.73	4.0	-8%	-3.7
COc1ccc(C(=O)NCCCn2nc(C)cc2C)cc1S(=O)(=O)N1CCOCC1	i	0.0	5.6	0.7	0.3	-9%	.
CN1CCN(C(=O)c2cccc(COc3cc(Cl)ccc3Cl)c2)CC1	.	-0.3	-0.2	0.69	.	-1%&-5%	1.3
CCS(=O)(=O)N1CCCC(C(=O)NCCN2CCC(Cc3ccccc3)CC2)C1 (stereo unspecified)	.	-3.7	-3.0	0.73	.	-6%	9.7
COC(=O)CSc1nc(N)c(C#N)c(CC(C)C)c1C#N	i	3.2	-1.7	0.72	-4.2	-31%	0.5
Following part.
SMILES	FGF22 binding	UCH37 inh	HNF4A DNA FP	E coli growth	MLL AF4-AF9 inh	Vif TR-FRET	RanGTP-Impb inh
CCCCS(=O)(=O)N1C2=NC(C(=O)OC)=C(C(=O)OC)[C@@H]3N(C)c4ccc(OC)cc4[C@]23C[C@H]1C(=O)OC	.	0.4	1.3	.	.	.	4.1
Clc1ccc(C2[C@H]3CN(Cc4cccnc4)[C@H](c4ccccc4)C34CC2(c2ccccc2)C4)cn1 (stereo partly specified)	i	3.2	.	.	2.3	.	-4.1
Cc1cc(Br)ccc1OCC(=O)NNC(=O)c1ccc(NC(=O)C2CC2)cc1	i	2.3	3.6	0.63	-7.3	4%	-3.5
O=C(NC1CCCCCCC1O)c1ccccc1 (stereo unspecified)	i	.	1.7	.	-3.9	2%	.
O=C(Cc1csc(N2CCOCC2)n1)N/N=C/c1ccc(Cl)cc1Cl	.	.	7.9	.	.	-6%	2.9
CC(C)=CC(=O)OCc1csc(CC(=O)Nc2ccccc2C)n1	i	2.7	2.3	0.74	0.5	-4%	0.7
CCc1nc2c(OCC(N)=O)cccn2c1N(C)C(=O)C(C)C	i	.	3.6	.	-0.6	.	.
CCc1ccc(NC(=O)CC2C(=O)N(c3ccc(OC)cc3)C(=O)N2CCOC)cc1 (stereo unspecified)	i	5.4	0.1	0.7	-32	.	2.3
CCc1ccc(NC(=O)Cn2nnc(C(=O)NCc3ccc(OC)cc3)c2N)cc1	i	1.0	2.8	0.72	-4.1	.	-1.6
Clc1ccc(OCCOCCOc2cccc3cccnc23)c(Br)c1	i	2.4	-1.5	0.68	-20	?	-1.7
CC1=C(C#N)C(c2ccc(O)cc2)C2=C(CCCC2=O)N1 (stereo unspecified)	i	-100	-1.1	0.65	-7.1	5%	6.9
Cc1ccc(-c2csc3ncnc(SCC(=O)O)c23)cc1	i	6.9	4.6	0.69	-1.4	-15%	-2.2
COc1ccc(CNC(=O)CCC2N=C3c4ccccc4N=C(SCC(=O)NCC4CCCO4)N3C2=O)cc1 (stereo unspecified)	i	-15	2.1	0.69	-2.7	.	-3.4
COC(=O)Nc1ccc(C)c(NC(=O)OC)c1	i	4.7	-0.1	0.67	5.4	-1%	0.9
CC1Cc2ccccc2N1C(=O)COC(=O)c1ccccc1NCCO (stereo unspecified)	i	-500	-2.4	0.68	-9.1	3%	1.5
C[C@H](CCC(=O)NCC(=O)O)[C@H]1CC[C@H]2C3[C@H](O)C[C@@H]4C[C@H](O)CC[C@]4(C)[C@H]3C[C@H](O)[C@]12C (stereo partly specified)	i	1.2	0.8	.	-4.5	.	-0.3
CS(=O)(=O)c1cccc(S(=O)(=O)N2CCCCCC2)c1	i	-1.2	-1.1	0.71	-2.3	.	?
CN(C)S(=O)(=O)c1cccc(NC(=O)CN2C(=O)NC3(CCc4ccccc4C3)C2=O)c1 (stereo unspecified)	i	0.6	2.9	0.67	0.3	-8%	3.3
CC(=O)NNc1nc(-c2ccc(NC(C)=O)cc2)cs1	.	37*	8.0	0.68	-3.9	.	0.4
CCOC(=O)C1CCN(c2cc(=O)n(Cc3ccc(F)cc3)c(=O)[nH]2)CC1	i	-0.3	5.2	0.72	9.6	0%	-0.4
COC(=O)C1C(=O)C2=C(CC1C)NC(C)=C(C(=O)OCc1ccc(OC)cc1)C2c1ccc(C)o1 (stereo unspecified)	.	-16	-1.7	0.66	.	8%	-0.5
COc1ccc(N2CCN(S(=O)(=O)c3ccc4c(c3)OCCO4)CC2)cc1	i	2.9	3.5	0.71	-8.0	-3%	3.8
CCN(CC(=O)NCc1ccc(Cl)cc1)C(=O)CCOc1ccccc1C	i	0.1	3.5	0.66	-1.2	3%	0.8
Cc1c(N2C(=O)c3ccc4c5c(ccc(c35)C2=O)CC4)c(=O)n(-c2ccccc2)n1C	.	-13	-27	0.75	.	?	-0.3
Cc1ccc(-c2cc3c(n2-c2ccc(C(=O)O)cc2)CCCC3=O)cc1	.	1.2	3.5	0.69	.	11%	0.7
(continued)
SMILES	FGF22 binding	UCH37 inh	HNF4A DNA FP	E coli growth	MLL AF4-AF9 inh	Vif TR-FRET	RanGTP-Impb inh
Cc1ccc(S(=O)(=O)NN2C(=O)c3ccccc3NC2c2ccccn2)cc1 (stereo unspecified)	i	-171	1.8	0.7	-21	9%	2.8
Fc1ccc(NC(=S)NC2CC3CCCC(C2)N3Cc2cccs2)cc1 (stereo unspecified)	i	3.0	4.8	0.65	3.8	2%	1.2
O=C(Nc1ccccc1C(=O)N1CCCCC1)NC1CCCCC1	i	0.7	-5.6	0.73	1.9	-17%	3.8
CC1O[C@H](OC2C(COC3OC(CO)C(O)[C@H](O)C3O)OC(OC3CC[C@]4(C)C(CC[C@@]5(C)[C@@H]4C=C[C@]46OC[C@@]7(CCC(C)(C)C[C@H]74)C(O)C[C@@]56C)C3(C)C)C(O)C2O)C(O)C(O)C1O (stereo partly specified)	i	-0.3	-1.6	.	4.8	.	.
CC(=O)NCCC(=O)N(C)CC1CCN(CCc2cccc(C(F)(F)F)c2)CC1	i	.	-2.5	.	3.1	0%	-2.9
CCc1ccccc1N(CC(=O)Nc1cccc(N(C)S(C)(=O)=O)c1)S(C)(=O)=O	.	-0.8	14	0.65	.	-1%	4.1
COc1ccc(C)c(NC(=O)C2CC(=O)NC3=C2C(=O)CCC3)c1 (stereo unspecified)	i	1.6	-0.1	0.67	-1.1	.	2.3
O=C(OCCN1CCCCC1)c1ccccc1Cl	.	0.4	-1.9	0.68	.	-2%	2.6
O=C(CCS(=O)(=O)c1ccc(Br)cc1)Nc1ccccn1	.	2.0	1.1	0.71	.	.	-1.4
Cc1oc2c(c(=O)c1C)C(=O)CC(c1ccccc1)C2 (stereo unspecified)	.	0.2	-0.4	0.63	.	6%	0.5
Cn1nnnc1Sc1ncnc2scc(-c3cc4ccccc4o3)c12	i	.	11	.	-23	.	.
CC(=O)c1cccc(NC(=O)NNC(=O)CCC(=O)Nc2ccc(C)c(C)c2)c1	i	2.1	-4.5	0.7	-0.4	.	5.1
CCc1ccc(OC)c(S(=O)(=O)Nc2ccc(Cc3ccncc3)cc2)c1	.	3.5	-3.2	0.66	-0.5	.	1.3
COc1ccc(Cl)cc1-c1nc(N)nc(N(C)C)n1	.	0.4	-4.2	0.68	.	-3%	1.3
O=C(NCC(c1ccco1)N1CCCC1)c1ccccc1F (stereo unspecified)	.	2.5	-0.1	0.71	.	9%	?
COC(Cn1c2c(c3cc(C)ccc31)CCCC2NCc1ccccc1)OC (stereo unspecified)	i	0.3	1.8	0.59	.	-2%	2.0
O=C(N/C=N/O)C1=NOC(CNc2ncc(C(F)(F)F)cc2Cl)C1 (stereo unspecified)	.	.	1.6	.	.	-2%	0.1
CC1CCCCC1NC(=O)CN1C(=O)c2ccccc2S1(=O)=O (stereo unspecified)	i	3.9	5.7	0.71	-1.5	.	-5.9

Random excerpt: 3 entries already listed.
SMILES	FGF22 binding	UCH37 inh	HNF4A DNA FP	E coli growth	MLL AF4-AF9 inh	Vif TR-FRET	RanGTP-Impb inh
Cc1oc2c(c(=O)c1C)C(=O)CC(c1ccccc1)C2 (stereo unspecified)	.	0.2	-0.4	0.63	.	6%	0.5
CC1O[C@H](OC2C(COC3OC(CO)C(O)[C@H](O)C3O)OC(OC3CC[C@]4(C)C(CC[C@@]5(C)[C@@H]4C=C[C@]46OC[C@@]7(CCC(C)(C)C[C@H]74)C(O)C[C@@]56C)C3(C)C)C(O)C2O)C(O)C(O)C1O (stereo partly specified)	i	-0.3	-1.6	.	4.8	.	.
O=C(CCS(=O)(=O)c1ccc(Br)cc1)Nc1ccccn1	.	2.0	1.1	0.71	.	.	-1.4

This is a subset (hit frequency here may not be typical).
